High-throughput results (PubChem BioAssay)
GALR2 ag: activates the human galanin receptor 2; hit rate 0.48% among 140,000; O43603; activation, %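 (tested at 5 µM)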; GALR2-expressing cells, agonist activation read-out;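 active = above mean plus 3 SD of all compounds, about 5% in these data, not always enough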;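 also: 0% = vehicle buffer wells and 100% = reference agonist at full effect; tested in CHO reporter cells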
PKD1 inh: blocks activity of human protein kinase D1; PKD1 kinase fluorescence polarization assay; inhibition, %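 (about 10 µM by stock and volumes)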; hit rate 0.056% among 200,000;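 active = inhibition of 50% or more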;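 also: controls were vehicle for no effect and a reference inhibitor for full effect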
Target sequence (Q15139 whole entry, looked up): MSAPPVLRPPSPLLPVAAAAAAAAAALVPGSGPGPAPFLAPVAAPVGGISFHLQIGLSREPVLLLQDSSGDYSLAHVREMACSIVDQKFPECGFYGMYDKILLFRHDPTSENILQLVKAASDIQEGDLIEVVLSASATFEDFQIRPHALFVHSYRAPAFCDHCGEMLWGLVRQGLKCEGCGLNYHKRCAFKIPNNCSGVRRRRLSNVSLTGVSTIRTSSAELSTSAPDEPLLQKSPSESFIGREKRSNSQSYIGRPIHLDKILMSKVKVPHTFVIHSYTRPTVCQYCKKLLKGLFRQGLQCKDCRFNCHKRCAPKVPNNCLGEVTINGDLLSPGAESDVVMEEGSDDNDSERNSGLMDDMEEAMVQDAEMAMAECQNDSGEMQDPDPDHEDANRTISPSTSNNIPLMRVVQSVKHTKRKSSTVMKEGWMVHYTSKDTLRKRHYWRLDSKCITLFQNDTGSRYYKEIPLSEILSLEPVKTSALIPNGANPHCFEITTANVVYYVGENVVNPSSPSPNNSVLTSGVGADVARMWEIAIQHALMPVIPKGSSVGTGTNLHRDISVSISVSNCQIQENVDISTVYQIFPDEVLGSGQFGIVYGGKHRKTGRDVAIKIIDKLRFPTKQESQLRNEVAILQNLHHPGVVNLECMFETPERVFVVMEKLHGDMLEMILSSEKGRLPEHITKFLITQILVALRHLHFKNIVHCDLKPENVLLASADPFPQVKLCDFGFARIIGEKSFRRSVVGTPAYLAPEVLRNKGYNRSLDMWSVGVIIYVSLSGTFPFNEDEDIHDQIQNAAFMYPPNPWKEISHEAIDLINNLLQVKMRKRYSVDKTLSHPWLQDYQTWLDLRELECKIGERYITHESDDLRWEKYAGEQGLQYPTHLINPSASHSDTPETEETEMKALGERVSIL
HSV augment: increases HSV replication in cells; HSV replication augmentation in cells, fold increase; maximum fold increase; hit rate 0.005% among 220,000;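 active = peak rise of 1.5-fold or more in the series; tested in PC3 cells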;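 also: first round at 10 µM; read as green reporter fluorescence; hits show the peak of a series up to 25 µM; 1 = signal of infected wells without compound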
RGS16-Gao: regulators of human RGS16-Galphao interaction; O15492+P09471; bead-based flow cytometry RGS16-Galphao binding, fluorescence; actives lie on both sides; binding response (% of control), % at 10 µM; hit rate 0.38% among 220,000;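 active = below 25% or above 175%, edge rows of some plates excepted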;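 also: Galphao activated by GDP with aluminum fluoride before binding; 100% = wells without compound and 0% = beads without RGS; some results beyond the cut were filed as inactive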
INS promoter inh: TRM-6 insulin promoter activity inhibition; hit rate 0.9% among 130,000; inhibition, % at 2 µM; TRM-6 cells (human fetal islet line), insulin promoter-eGFP reporter, imaging; reporter expression induced with tamoxifen;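 active = inhibition above the mean plus 3 SD, with well images judged a real hit on visual review, cut at about 60% in these data, passing the limit was not always enough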
INS promoter inh cell count: further read-out of INS promoter inh, marked with its call; normalized cell count, %; measured here: cell count, toxicity; reference of the scale not given here;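 cells exposed to compound for 48 h; stained nuclei by imaging scaled within each plate; lower means fewer cells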
HSV augment primary fold: also measured in HSV augment; calls as there; fold increase; compound at 10 µM; measured here: primary screen fold increase 10 uM; tested in PC3 cells;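 GFP signal in the first replicate; 1 = infected wells without compound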
The depositor's hits bear a star; i = inactive; x = not tested or not shown.

Results follow in this order: GALR2 ag	PKD1 inh	HSV augment	HSV augment primary fold	RGS16-Gao	INS promoter inh	INS promoter inh cell count
- Cc1ccc2c(c1)N1C(=O)c3ccccc3C1C1=C(CC(C)(C)CC1=O)N2 (centres undefined)
 : -2.0	-8	i	0.84	93	-22	70
- O=c1cc(-c2ccccc2)nc2nc(CCc3ccccc3)[nH]n12
 : -1.1	-3	i	1	104	-344	40
- CCOC(=O)c1c(O)c2ccccc2n(C)c1=O
 : x	-7	i	1.1	112	x	x
- Cc1ccc(S(=O)(=O)N/N=c2\sc3ccccc3n2C)cc1
 : 0.8	-4	i	1.1	40	x	x
- COc1ccc(C(=O)Nc2cnc3ccccn3c2=O)cc1
 : x	-3	i	1	104	x	x
- O=S(=O)(c1cnc(Cl)c(Cl)c1)N1CCc2ccccc21
 : x	x	i	1.1	101	x	x
- O=C(NCc1ccccn1)c1cc2c(ccc3ccccc32)oc1=O
 : x	-2	i	0.96	91	5	57
- Cc1occc1C(=O)NN1C(=O)C2C3CCC(O3)C2C1=O (centres undefined)
 : -2.7	-2	i	1	101	-4	97
- COc1cc(C(=O)NCc2cc(C)nc3ccccc23)cc(OC)c1OC
 : x	-1	i	0.93	93	8	93
- O=C(Nc1ccc(O)c(-c2nc3ccccc3s2)c1)c1cccs1
 : -0.8	-8	i	0.84	172	20	127
- CC(=O)c1sc2nc(-c3ccc(C)cc3)c3c(c2c1N)CCCC3
 : 3.2	-1	i	0.8	112	-29	155
- N#C/C(=C\c1cn[nH]c1-c1ccccc1)C(=O)NC1CCCCCC1
 : -1.0	-7	i	0.7	109	-10	110
- CC12CN3CC(C)(CN(C1)C3c1c[nH]c3ccccc13)C2=O (centres undefined)
 : x	-2	i	0.97	102	x	x
- COc1cc(C(=O)NCC(=O)OCC(=O)N2CCc3ccccc32)cc(OC)c1OC
 : x	-3	i	1	89	-27	110
- CCN(CCNS(=O)(=O)c1ccc2c(c1)oc(=O)n2C)c1ccccc1
 : -2.7	4	i	1	71	x	x
- Clc1ccc(-c2ccc(C=Nc3ccc(N4CCOCC4)cc3)o2)cc1
 : -2.3	6	i	0.79	91	-33	71
- CCCNc1cc(C)c(C#N)c2nc3ccccc3n12
 : 0.6	5	i	1	96	-381	48
- CCCCNC(=O)NNC(=O)c1cc(C)on1
 : x	x	i	0.93	96	x	x
- O=C(O)/C=C/C(=O)Nc1ccc(Cl)cc1C(=O)c1ccccc1
 : x	x	i	1.6	99	x	x
- CCN(CC)CCCC1(CN)OCCc2ccccc21 (centres undefined)
 : -2.9	24	i	1.1	105	27	39
- O=[N+]([O-])c1ccccc1OCCCn1cnc2ccccc21
 : x	-2	i	0.91	100	x	x
- CNC(=O)NNC(=O)c1csc(Cc2c(Cl)sc3ccc(Cl)cc23)n1
 : x	x	i	1	102	x	x
- Clc1ncc2[nH]cnc2n1
 : x	-4	i	1.1	98	x	x
- O=C(NNS(=O)(=O)c1ccc(Br)cc1)c1ccncc1
 : -1.0	-22	i	1	99	35	85
- N#Cc1c(NC(=O)c2cccc(S(=O)(=O)Nc3ccc(C(=O)O)cc3)c2)sc2c1CCCC2
 : x	x	i	0.95	98	x	x
- O=C(CSc1nc2ccccc2c(=O)n1-c1ccc(F)cc1)Nc1ccc(N2CCOCC2)cc1
 : -0.5	-1	i	0.88	95	x	x
- COc1cc(C2/C(=C(\O)c3ccc4c(c3)CC(C)O4)C(=O)C(=O)N2Cc2ccco2)ccc1O (centres undefined)
 : -1.2	5	i	0.89	-11*	23	46
- O=C(CCCl)Nc1ccc(S(=O)(=O)NCc2ccco2)cc1
 : x	x	i	0.82	102	x	x
- CCC1C(=O)N=C(SCC(=O)Nc2ccc(Br)cn2)NC1=O (centres undefined)
 : x	-3	i	1	107	x	x
- CSc1ccc(/C=N\NC(=O)CC(=O)NC(C)C)cc1
 : x	-6	i	0.9	101	-18	61
- COn1c(SCC(=O)N(C)C)nc2ccccc2c1=O
 : -4.3	-7	i	1	18	x	x
- Cc1ccc(NC(=O)Cc2c(C(=O)O)n(C)c3ccccc23)cc1F
 : x	0	i	1	98	x	x
- CCOC(=O)c1c(N2C(=O)Nc3ccccc3N2O)sc2c1CCCCC2
 : 0.3	-5	i	0.89	113	25	134
- Cc1cc2ncn(-c3ncnc4sc5c(c34)CCCC5)c2cc1C
 : -1.2	1	i	1	98	-8	118
- CC(C(=O)Nc1ncn[nH]1)N1C(=O)c2ccccc2C1=O (centres undefined)
 : -2.6	-12	i	0.98	26	38	147
- O=C(CCc1ccccc1)NNC(=O)Cc1ccc(Cl)cc1
 : x	1	i	0.99	101	x	x
- C/C(=N\OC(=O)NC(C)C)c1sc(-c2ccc(Cl)cc2)nc1C
 : -0.1	-3	i	0.83	106	-15	102
- C=CCOc1cccc(/C=N/NC(=O)C(=O)NCc2ccco2)c1
 : -1.6	5	x	x	98	x	x
- Cc1ccc(C(=O)COc2ccccc2N2C(=O)c3ccccc3C2=O)cc1
 : -1.4	9	i	0.98	98	-19	60
- COC(=O)c1ccc(OCCOc2ccccc2)cc1
 : -2.5	0	i	0.96	103	-15	121

Four successive compounds out of the list so far, for reference:
Results follow in this order: GALR2 ag	PKD1 inh	HSV augment	HSV augment primary fold	RGS16-Gao	INS promoter inh	INS promoter inh cell count
- COn1c(SCC(=O)N(C)C)nc2ccccc2c1=O
 : -4.3	-7	i	1	18	x	x
- Cc1ccc(NC(=O)Cc2c(C(=O)O)n(C)c3ccccc23)cc1F
 : x	0	i	1	98	x	x
- CCOC(=O)c1c(N2C(=O)Nc3ccccc3N2O)sc2c1CCCCC2
 : 0.3	-5	i	0.89	113	25	134
- Cc1cc2ncn(-c3ncnc4sc5c(c34)CCCC5)c2cc1C
 : -1.2	1	i	1	98	-8	118

Next results
Results follow in this order: GALR2 ag	PKD1 inh	HSV augment	HSV augment primary fold	RGS16-Gao	INS promoter inh	INS promoter inh cell count
- COc1ccc(C(C)=O)cc1COC(=O)c1ccc(S(=O)(=O)N(C)C)cc1
 : x	-1	i	0.81	97	-85	67
- C/C(=C/CCC(C)C1CCC2(C)C3CCC4C(C)(C)C(=O)CCC4(C)C3=CCC12C)C(=O)O (centres undefined)
 : x	x	i	1	100	x	x
- O=C1NCC(COCc2ccccc2)O1 (centres undefined)
 : -1.3	-12	i	0.96	96	-38	72
- CC(=O)c1ccc(N2CCN(C(=O)C3(S(=O)(=O)c4ccc(Cl)cc4)CC3)CC2)cc1
 : 1.2	-6	i	1.3	101	-43	138
- Cc1ccc(S(=O)(=O)CC(O)COc2ccc(F)cc2Cl)c(C)c1 (centres undefined)
 : x	-5	i	0.97	97	31	118
- Cn1c(=O)c2c(n(Cc3ccccc3)c1=O)NC(=O)C2CC(=O)NCc1cccc(Cl)c1 (centres undefined)
 : -0.5	2	i	1	100	54	51
- CCOc1ccc2nc(SCc3ccc(F)cc3)sc2c1
 : 1.2	-9	i	1.1	105	-17	74
- CC(C)CN1CCC(CN(C)Cc2nc(-c3cnccn3)no2)CC1
 : x	1	i	1	105	x	x
- O=C(Nc1ccccc1Cl)NC1(C(=O)N2CCCCC2)CCCCC1
 : -3.7	-4	i	0.97	109	46	92
- CCc1ccccc1NC(=S)NCc1cccn1C
 : 0.4	-5	i	1.1	101	-61	132
- CCOC(=O)c1c(NS(=O)(=O)c2ccc(Br)cc2)sc2c1CCC2
 : -1.2	-2	i	1	102	58	85
- CCOC(=O)c1[nH]c2ccccc2c1NC(=O)c1ccc(S(=O)(=O)N2CCCC2)cc1
 : -0.6	-6	x	x	104	-2	72
- COCCn1c(C)cc(C(=O)CSc2n[nH]c(N)n2)c1C
 : -0.6	-2	i	1.1	97	24	100
- O=C(NCC(=O)N1CC(O)CC1C(=O)N1CCCC1C(=O)OCc1ccccc1)OCc1ccccc1 (centres undefined)
 : x	0	i	0.82	95	-33	64
- CC(C)NC(=O)C1CCN(C(=O)c2cc3sccc3n2Cc2ccc(F)cc2)CC1
 : 0.5	-8	i	1.3	91	x	x
- O=C(CCNC(=O)c1ccccc1Cl)Nc1nnc(C2CC2)s1
 : x	1	x	x	101	14	140
- CC(C)(C)c1nnc2sc(SCC(=O)c3ccccc3)nn2c1=O
 : -0.7	-7	i	0.87	100	6	137
- CCn1nnnc1SCC(=O)c1cc(OC)ccc1OC
 : -0.9	-5	i	0.85	100	28	90
- Cc1ccc(S(=O)(=O)Nc2ccc3c(c2)ncn3C(C)(C)C)cc1
 : -1.5	-1	i	0.91	115	-36	142
- CC1=CC(=O)C=CC1(C)C(Cl)(Cl)Cl (centres undefined)
 : -0.9	4	i	0.74	101	-2	89
- O=C(CN1CCN(S(=O)(=O)c2ccccc2)CC1)NC(=O)NCc1ccco1
 : x	x	i	0.92	96	x	x
- Cc1cccc(OCC(=O)N(Cc2ccc(N(C)C)cc2)C2CCS(=O)(=O)C2)c1 (centres undefined)
 : x	x	i	0.99	106	x	x
- O=C(c1cccnc1)N1N=C(C2CCCCC2)CC1(O)C(F)(F)F (centres undefined)
 : x	-6	i	0.99	108	x	x
- COC(=O)c1cc(Br)c(=O)n(-c2ccc(F)cc2)c1
 : -0.5	2	i	0.85	99	25	59
- O=C(NC1CCCCC1)C(c1ccc(F)cc1)N(Cc1ccc2c(c1)OCO2)C(=O)c1cnsn1 (centres undefined)
 : -0.2	-3	i	0.97	102	-226	77
- c1ccc(-c2ccccn2)nc1
 : 0.0	-3	i	0.98	100	0	112
- CCOc1nc2ccccc2nc1C
 : -0.8	-10	i	0.98	104	18	160
- Cc1ccc(S(=O)(=O)N2CCC(=O)N(C(COCc3cccc(Cl)c3)C(C)C)CC2)cc1 (centres undefined)
 : 0.3	9	i	0.86	101	-95	109
- CC1=C(C(=O)Nc2cc(C)ccc2C)C(c2cccs2)NC(=S)N1 (centres undefined)
 : -0.1	-16	i	1.2	99	-42	66
- CCOC(=O)C(C(=O)OCC)C(Nc1cccc(Br)c1)c1ccccc1 (centres undefined)
 : -2.2	-4	i	0.6	104	31	117
- O=C(N/N=C/C(Cl)=C\c1ccccc1)c1ccco1
 : x	x	i	0.83	91	x	x
- S=c1nccc(-c2cccs2)[nH]1
 : x	-6	i	0.98	98	-160	80
- CCOc1cc(/C=N/O)ccc1OCc1ccccc1F
 : 0.1	1	i	0.95	112	50	132
- Cn1c(O)c(N=Nc2ccc(F)cc2)c2ccccc21
 : x	-12	i	1.1	109	-55	123
- S=c1[nH]nc(COc2ccc(Cl)cc2)n1Cc1ccccc1
 : x	-6	i	1.1	99	x	x
- O=C(O)CCN(Cc1ccccc1)S(=O)(=O)c1c(Cl)cccc1Cl
 : x	-5	i	1.1	100	24	138
- Cc1ccc(S(=O)(=O)NCCc2nnc3ccc(SCC(=O)Nc4nc(C)cs4)nn23)cc1
 : -0.5	-2	i	1.1	102	-25	89
- CC(C)(C)NC(=S)N/N=C/c1cccnc1
 : x	x	i	1.1	99	x	x
- O=C(CCl)Nc1cccc2ncccc12
 : -1.1	-11	i	1	97	-17	111
- Cc1nnc(NC(=O)COc2ccccc2)s1
 : -0.3	-2	i	0.74	104	6	47
- COc1ccccc1NS(=O)(=O)c1cc(NC(=O)C(C)C)ccc1N1CCCCC1
 : x	0	i	0.86	85	x	x

Two records drawn at random from the list so far, as already listed:
Results follow in this order: GALR2 ag	PKD1 inh	HSV augment	HSV augment primary fold	RGS16-Gao	INS promoter inh	INS promoter inh cell count
- CCOC(=O)c1[nH]c2ccccc2c1NC(=O)c1ccc(S(=O)(=O)N2CCCC2)cc1
 : -0.6	-6	x	x	104	-2	72
- COc1ccc(C(C)=O)cc1COC(=O)c1ccc(S(=O)(=O)N(C)C)cc1
 : x	-1	i	0.81	97	-85	67
